Screening data as filed in PubChem BioAssay.
HPGD inh: HPGD (human) dehydrogenase inhibition. P15428. purified HPGD, NADH fluorescence kinetic, PGE2 substrate. Potency, µM, inactives show at the top dose activity change, negative = inhibition, actives largely listed as inhibitors. hit rate 4.3% among 150,000. AID 894; active = well fitted inhibition curve with a large enough effect (not every such curve was filed as active); inconclusive = small, poorly fitted or top-dose-only effect, or another doubt; inactive = no such curve, though single readings can be large or run the other way;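 also: top concentration of the series not given in the record; plate controls included wells without enzyme; inactives centre near -10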
Target sequence (P15428 whole entry, looked up): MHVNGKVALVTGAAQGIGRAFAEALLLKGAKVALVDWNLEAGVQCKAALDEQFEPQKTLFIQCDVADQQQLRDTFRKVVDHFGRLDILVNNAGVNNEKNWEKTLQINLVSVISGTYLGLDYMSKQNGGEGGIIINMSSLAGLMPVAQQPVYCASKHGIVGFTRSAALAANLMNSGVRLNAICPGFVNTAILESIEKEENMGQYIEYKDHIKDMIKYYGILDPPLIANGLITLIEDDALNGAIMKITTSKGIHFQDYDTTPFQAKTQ
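20 nM HPGD preincubated 15 min at room temperature with compound in 50 mM Tris-HCl pH 8, 0.01% Tween 20. Started with 1 mM NAD+ and 30 uM prostaglandin E2; NADH fluorescence (360/450 nm) read 5 times over 30-s intervals, last minus first.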
An asterisk follows results filed as active; ? = inconclusive; & = joins results of further samples. % is scaled to controls: 0 for no effect and ±100 for the full control effect; potency is read from the fitted curve at half-maximal effect.

molecule	HPGD inh
COc1ccc(CC2c3cc(OC)c(OC)cc3CCN2C)cc1O (centres undefined)	-6.2%
COc1ccc(N=C(C)c2c(O)n(C3CCCCC3)c(=O)[nH]c2=O)c(OC)c1	-17.0%
COC(=O)c1c(C)n(Cc2ccco2)c2ccc(O)cc12	-23.6%
O=C(NCC(c1cccnc1)N1CCOCC1)Oc1ccccc1 (centres undefined)	-10.0%
Cc1cc(C)cc(N2C(=O)NC(=O)/C(=C/c3cccn3-c3ccc(Cl)cc3)C2=O)c1	3.98µM*
CCCCn1c(N)c(C(=O)OCC2CCCO2)c2nc3ccccc3nc21 (centres undefined)	?
C=CCN1C(=O)/C(=C\c2ccc(N3CCOCC3)o2)C(=O)NC1=S	-23.1%
CCOC(=O)C1(c2ccccc2)CCN(CC(=O)Nc2cccc3ccccc23)CC1	-15.3%
O=C1C=Cc2ccccc2C1=O	7.94µM*
CCn1c(C(=O)N2CCC(C(=O)N3CCC4(CC3)OCCO4)CC2)cc2sccc21	-9.0%
CCOc1c(P(=S)(N(C)C)N(C)C)c(C)nn1-c1ccccc1	-3.9%
N[C@H](Cc1ccc2oc3cc(=O)c4ccccc4c-3nc2c1)C(=O)O	-10.4%
O=c1[nH]c2ccccc2n1CCCN1CCC(n2c(=O)[nH]c3cc(Cl)ccc32)CC1	-7.9%&-0.1%&-11.5%&1.2%&-1.2%
C=Cn1ccnc1P(=S)(c1ccn(C)c1)c1nccn1C=C	-1.9%
COCCOC(=O)C1=C(N)Oc2c(c(=O)oc3ccccc23)[C@@]12C(=O)Nc1ccccc12	-5.4%
COCCNCCOc1ccc(C(C)(C)c2ccccc2)cc1	-4.5%
FC(F)(F)c1ccc(Cl)cc1	-3.0%
Cc1cc(N)n(C2CCN(C)CC2)n1	2.1%
C[N+](C)(C)CC(=O)O	-15.1%
COc1cc2c(cc1O)C[C@@H]1c3c(cc(O)c(OC)c3-2)CCN1C	?
O=[As](O)(O)c1ccc(Cc2ccc([As](=O)(O)O)cc2)cc1	3.55µM*
O=C(c1cnn2c(C(F)(F)F)cc(-c3ccccc3)nc12)N1CCC2(CC1)OCCO2	-13.1%
CCOC(=O)N(C)c1ccc(C(O)(C(=O)OCC)C(F)(F)F)cc1 (centres undefined)	-6.4%
O=C(O)c1ccccc1O	?
OC(Cn1c2ccccc2c2ccccc21)C[n+]1cccc2ccccc21 (centres undefined)	-11.6%
O=S(=O)(O)c1cc(N=C=S)ccc1/C=C/c1ccc(N=C=S)cc1S(=O)(=O)O	?
Cc1nc2c(=O)n(C)c(=O)nc-2n(C)n1	-18.4%
C[C@H]1CCCC(=O)CCCCCc2cc(O)cc(O)c2C(=O)O1	-19.4%
CCOc1ccc(C2C(C#N)=C(N)Oc3c2c(=O)oc2ccccc32)cc1 (centres undefined)	-9.3%
CC1=C2C3OC(=O)[C@H](C)[C@H]3CC[C@@]2(C)C=CC1=O (some centres undefined)	1.6%
C[C@](N)(CCP(=O)(O)O)C(=O)O	-4.6%
COc1cc(C=C(C#N)C#N)cc(O)c1O	31.6µM*
CCOC(=O)[C@@H]1[C@@H]2c3ccccc3-c3ccccc3[C@H]2C[C@H]1O	-8.4%
COc1cc(CCN)c(OC)c(OC)c1	-2.4%
Oc1ccc([C@H](O)C2CCCCN2)cc1O (some centres undefined)	1.1%
C=CCBr	-3.9%
CC(C)(C)c1cc(C=C(C#N)C#N)cc(C(C)(C)C)c1O	?
CN(C)CCO	-3.1%
CCC/C=C(\CCC)C(NP(=O)(c1ccccc1)c1ccccc1)c1ccccc1 (centres undefined)	-11.3%
CCOC(=O)c1c(C)n(CCOC)c2ccc(O)cc12	-5.9%
Nc1nc(N)c(N=Nc2ccc([As](=O)(O)O)c(O)c2)c(N)n1	-3.3%
O=C1C2CCCN2C(c2ccc(Cl)c(Cl)c2)N1c1ccccn1 (centres undefined)	2.3%
Cc1ccc(CS(=O)(=O)CCC(=O)N2CCC3(CC2)OCCO3)cc1	-8.0%
O=C(O)c1cccc([As]=[As]c2cccc(C(=O)O)c2)c1 (centres undefined)	-2.8%
CN(C)C1C(=O)C(C(N)=O)=C(O)[C@@]2(O)C(=O)C3=C(O)c4c(O)cccc4[C@@](C)(O)C3C[C@@H]12 (some centres undefined)	-15.2%
Brc1ccccc1	-5.8%
Cc1ccc(OP(=O)(Oc2ccc(C)cc2)Oc2ccc(C)cc2)cc1	-0.1%
CN(C)c1ccc(P(=S)(N(C)C)N(C)C)cc1	-20.8%
CC(=O)OC1N=C(c2ccccc2)c2cc(Br)ccc2NC1=O (centres undefined)	-5.1%
Cc1nn(Cc2ccccc2)c(C)c1C(=O)OCC(=O)NC1CCS(=O)(=O)C1 (centres undefined)	-1.2%
OC1(CN2CCOCC2)C2CC3CC(C2)CC1C3 (centres undefined)	-2.6%
Cc1ccc(C(=O)N/C(=C\Cl)P(=O)(c2ccccc2)c2ccccc2)cc1	-0.6%
CC(C)CCC1(CCc2ccncc2)C(=O)NC(=O)NC1=O	1.2%
COCCOC(=O)c1c(C)n(C)c2ccc(OC(=O)N(C)C)cc12	-7.1%
O=C(c1cccn2c(=O)c3ccccc3nc12)N1CCC2(CC1)OCCO2	?
CC(=O)c1ccccc1NC(=O)C1C2CCC(O2)C1C(=O)O (centres undefined)	-3.9%
CC(C(=O)c1ccccc1)N1C(=O)c2ccccc2C1=O (centres undefined)	-11.0%
N[C@@]1(C(=O)O)CC[C@@H](C(=O)O)C1	-19.2%
CCOC(=O)c1cc(C(O)(C(=O)OC)C(F)(F)F)c(/N=C/N(C)C)o1 (centres undefined)	-28.6%
Cc1ccc2ccccc2c1	-1.7%

Next compounds follow.
molecule	HPGD inh
Cc1ccc(C(=O)NC(=S)NNS(=O)(=O)c2ccc(C)cc2)cc1	15.8µM*
CC(NCc1ccccc1Cl)C(O)c1ccccc1 (centres undefined)	-12.8%
CCN(CC)C(=O)c1ccc(NC(=O)c2cccc(F)c2)cc1	14.1µM*
CCCCN1C(=O)/C(=C\c2ccco2)C(=O)N(CCc2ccccc2)C1=O	31.6µM*
NCC(CC(=O)O)C1CCCCC1 (centres undefined)	-1.8%
O=c1[nH]c(=O)n(CCC2=CCCCC2)c(O)c1C=NCCCn1ccnc1	-6.1%
C[Se]C[C@H](N)C(=O)O	4.1%
COc1cc2c(cc1O)CC1c3c(cc(O)c(OC)c3-2)CCN1C (centres undefined)	?
O=C(Nc1ccc(F)cc1)c1c(O)c2c(n(Cc3ccccc3)c1=O)CCCC2	?
Cn1cc(C(=O)Cc2ccccc2)c2ccccc21	-5.0%
CC(C)[C@H]1C(=O)N2CCC[C@H]2[C@]2(O)O[C@](NC(=O)[C@@H]3C=C4c5cccc6[nH]cc(c56)C[C@H]4N(C)C3)(C(C)C)C(=O)N12	?
CN1CCC(N(C)Cc2cccnc2)CC1	0.8%
Cc1cc(C)n2nc(C)[n+](C)c2n1	-19.9%
COC1=C[C@]23CCCN2CCc2cc4c(cc2[C@@H]3[C@@H]1O)OCO4	-6.4%
CC(=O)[O-].CC(=O)[O-].O.O.[Cd+2]	-1.7%
CN(C)CC1CSCCC1(O)c1ccccc1Cl (centres undefined)	-1.2%
COc1ccc(CN2CCN(c3ccccc3F)CC2)cc1O	-1.0%
CCN(CC)CCCN=Cc1c(O)n(CCc2ccc(F)cc2)c(=O)[nH]c1=O	-7.4%
CC(=O)O[C@H]1C(=O)[C@@]2(C)C([C@H](OC(=O)c3ccccc3)[C@]3(O)C[C@H](OC(=O)[C@H](O)[C@@H](NC(=O)c4ccccc4)c4ccccc4)C(C)=C1C3(C)C)[C@]1(OC(C)=O)CO[C@@H]1C[C@@H]2OC(=O)[C@H](C)NC(=O)c1ccc(-c2c3ccc(=O)cc-3oc3cc(O)ccc23)c(C(=O)O)c1 (some centres undefined)	-3.5%
C=CCn1c(O)c(C(C)=Nc2ccc(C(=O)OCC)cc2)c(=O)[nH]c1=O	-28.4%
CC1CC(=O)O1 (centres undefined)	-1.3%
Cc1ccc(N2C(=O)NC(=O)/C(=C/C=C/c3ccco3)C2=O)cc1	7.08µM*
CC(C#N)CCC#N (centres undefined)	0.1%
CC(C)(C)C(O)C(Oc1ccc(Cl)cc1)n1cncn1 (centres undefined)	-6.3%
CC(C)NC(C)Cc1ccc(I)cc1 (centres undefined)	-3.2%
O=C1C=CC(=O)c2c1ccc1c2ccc2ccccc21	11.2µM*
NCCc1c[nH]c2ccc(C(N)=O)cc12	-15.8%&-1.1%
N#Cc1c(Cl)nc(Cl)c2c1CCN(Cc1ccccc1)C2	?
Cn1c(O)c(C(=N)COc2ccccc2)c(=O)n(C)c1=O	-5.9%
c1ccc2c(c1)Sc1ccccc1N2C[C@H]1CN2CCC1CC2	-1.7%
CCCN1C[C@H](C)N([C@H](c2ccc(C(=O)N(CC)CC)cc2)c2cccc(OC)c2)C[C@H]1C	-2.4%
CCOc1cc(-c2c(C#N)c(=O)[nH]c3c2c(C)nn3-c2ccc(F)cc2)ccc1O	?
COc1ccccc1-n1c(-c2ccoc2)nc2ccccc2c1=O	-10.6%
CCOCCCNC(=O)CN1C2CCC1CC(O)(c1ccc(OC)cc1)C2 (centres undefined)	-13.8%
CCCC(C)C(=O)NC1CCSC1=O (centres undefined)	6.7%
CSc1ncc(/C=C2/C(=O)NC(=O)N(C)C2=O)cn1	-26.8%
CCCN1[C@H](C(=O)OC)C[C@@H]2CC[C@@H](O)C[C@@H]21	-7.5%
COC(=O)[C@@H]1C[C@H]2CC[C@H](O)C[C@H]2N1CC1CC1	-8.7%
C[C@]12CC[C@H]3[C@@H](CCC4=CC(=O)CC[C@@H]43)[C@@H]1CC[C@@H]2O	-4.1%
O=[N+]([O-])c1ccc(Cl)c(Cl)c1	-4.2%
CC(=NCCCO)c1c(O)n(Cc2ccccc2)c(=O)[nH]c1=O	?
O[C@@H]1[C@H](O)[C@H]2[C@@H](O)CCN2C[C@@H]1O	-4.8%
CC(N)C(=O)c1ccco1 (centres undefined)	1.9%
Oc1ccccc1O	17.8µM*
c1ccc(N=Nc2ccccc2)cc1	-6.4%&-1.2%
CN1c2ccc([N+](=O)[O-])cc2CC2(C(=O)NC(=O)NC2=O)C1c1ccccc1 (centres undefined)	-9.1%
CSCc1nnc2n1-c1ccc(Cl)cc1C(c1ccccc1)=NC2	?
CCC1CN2CCC1CC2C(O)c1ccnc2ccc(OC)cc12 (centres undefined)	?
S=c1[nH]nc(-c2ccco2)n1/N=C/c1cccs1	28.2µM*
COc1ccc(-c2nc(CS(=O)CC(=O)N3CCC4(CC3)OCCO4)c(C)o2)cc1 (centres undefined)	-24.1%
CCCCn1c(=O)c(C(=O)Nc2ccccc2S(N)(=O)=O)c(O)c2ccccc21	-9.4%
ClC1=C(Cl)C2(Cl)C3C(Cl)C(Cl)CC3C1(Cl)C2(Cl)Cl (centres undefined)	-4.2%
O=C(c1ccccc1F)c1cn(CC(=O)N2CCCC2)c2ccccc12	-17.4%
CCOC(=O)C1C(C=C(C)C)C1(C)C (centres undefined)	-15.1%
COP(=S)(OC)SCn1nnc2ccccc2c1=O	28.2µM*
CC(Cl)CCl (centres undefined)	-0.6%
O=C(C1CCN(S(=O)(=O)c2ccccc2)CC1)N1CCC2(CC1)OCCO2	-5.9%
CCOC(=O)CNC(=O)CSP(=S)(OCC)OCC	-5.4%
CCCCc1ccc2[nH]cc(CCN)c2c1	-10.0%
CC(Oc1ccc(Cl)cc1Cl)C(=O)Nc1ccc(S(=O)(=O)Nc2cnc3ccccc3n2)cc1 (centres undefined)	?

The list goes on:
molecule	HPGD inh
Nc1c(C(=O)NCCc2ccccc2)c2nc3ccccc3nc2n1CCN1CCOCC1	?
O=[N+]([O-])c1ccc(Sc2nc3ccccc3o2)c([N+](=O)[O-])c1	31.6µM*
Cc1ccc2c(c1)=C/C(=C\c1c(O)[nH]c(=O)[nH]c1=O)C(=O)N=2	?
N#CC(=Cc1ccc(O)c(O)c1)C(N)=S	28.2µM*
CCCCCCC(C)(C)c1ccc([C@@H]2C[C@H](O)CC[C@H]2CCCO)c(O)c1	-23.1%
C[N+]12CCC(CC1)C(C#N)(N1CCOCC1)C2 (centres undefined)	-1.7%
O=c1[nH]c(=O)n(C2CCCCC2)c(O)c1C=Nc1ccc(N2CCOCC2)cc1	?
CCN(CC)CCCN=Cc1c(O)n(-c2ccccc2F)c(=O)[nH]c1=O	-8.3%
O=C(OCC(=O)c1ccc([N+](=O)[O-])cc1)/C(=C\c1ccc(Cl)cc1)NC(=O)c1ccccc1	-4.6%
COc1ccc2c(c1OC)C(=O)OC2c1c(O)n(Cc2ccc(F)cc2)c(=O)[nH]c1=O (centres undefined)	-15.4%

In a second layout: entries from further up
O=[N+]([O-])c1ccc(Sc2nc3ccccc3o2)c([N+](=O)[O-])c1
  HPGD inh: 31.6µM*

Cc1ccc2c(c1)=C/C(=C\c1c(O)[nH]c(=O)[nH]c1=O)C(=O)N=2
  HPGD inh: ?

N#CC(=Cc1ccc(O)c(O)c1)C(N)=S
  HPGD inh: 28.2µM*

CCCCCCC(C)(C)c1ccc([C@@H]2C[C@H](O)CC[C@H]2CCCO)c(O)c1
  HPGD inh: -23.1%

These rows are one share of the data; the hit share may differ from the screen's.
